Assay outcomes: PubChem BioAssay, several laboratories
Mtb H37Rv – M. tuberculosis H37Rv growth inhibitors, H37Rv strain (AID 1626). M. tuberculosis H37Rv growth inhibition; higher % means a stronger effect. hit rate 0.95% among 220,000. inhibition, % at 10 µM; hits with a dose series show IC50 in µM;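 active = confirmed in a dose series; inconclusive = inhibition above 80% but not taken into the dose series; inactive = below 80% or under 30% at every dose of the series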;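 also: bacteria incubated seven days before Alamar blue readout; 0% = bacteria only wells and 100% = bacteria with antibiotic wells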
YopH inh – YopH tyrosine phosphatase inhibitors, primary screen, biochemical, fluorescence Ex485/Em525. YopH tyrosine phosphatase [Yersinia enterocolitica]. inhibition, %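 (about 10 µM by stock and volumes)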. hit rate 0.16% among 140,000;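 active = inhibition of 50% or more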;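 also: controls were vehicle for no effect and minimum signal wells for full effect; inactives centre near -20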
RecA splice inh – Mtb RecA intein splicing inhibitors, primary screen, biochemical, fluorescence, HTS; cell-free RecA intein splicing; hit rate 0.75% among 290,000; AID 2221, 2009; inhibition, %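 (about 9 µM by stock and volumes)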; in the data active = inhibition above about 30%; inconclusive = no clear call, values can overlap the other calls;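 also: 0% = vehicle wells and 100% = reference inhibitor control wells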
Target sequence (P9WHJ3 whole entry, looked up, canonical isoform): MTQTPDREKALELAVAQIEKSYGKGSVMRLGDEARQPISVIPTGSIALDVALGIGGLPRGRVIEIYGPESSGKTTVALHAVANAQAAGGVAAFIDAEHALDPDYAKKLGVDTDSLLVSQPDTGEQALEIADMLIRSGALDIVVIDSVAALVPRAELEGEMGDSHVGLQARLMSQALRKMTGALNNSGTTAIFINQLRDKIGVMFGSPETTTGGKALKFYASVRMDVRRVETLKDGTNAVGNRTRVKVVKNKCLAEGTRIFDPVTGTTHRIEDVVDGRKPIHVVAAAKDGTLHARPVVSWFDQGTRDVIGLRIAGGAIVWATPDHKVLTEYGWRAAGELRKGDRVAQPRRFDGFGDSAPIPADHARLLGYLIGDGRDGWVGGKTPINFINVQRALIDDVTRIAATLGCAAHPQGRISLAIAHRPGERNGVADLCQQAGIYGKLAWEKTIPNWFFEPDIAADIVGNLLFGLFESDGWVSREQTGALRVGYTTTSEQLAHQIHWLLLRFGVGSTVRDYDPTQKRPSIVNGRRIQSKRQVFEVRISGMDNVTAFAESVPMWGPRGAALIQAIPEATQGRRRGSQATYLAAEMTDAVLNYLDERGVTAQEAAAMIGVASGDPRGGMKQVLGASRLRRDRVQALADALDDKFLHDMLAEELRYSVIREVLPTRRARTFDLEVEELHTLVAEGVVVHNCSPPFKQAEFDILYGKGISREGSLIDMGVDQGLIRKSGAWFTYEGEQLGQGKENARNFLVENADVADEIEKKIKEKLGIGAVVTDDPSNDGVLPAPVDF
Arbovirus inh – antivirals against arbovirus infection, primary screen, cell-based, full library, 10K replicate subset. arbovirus infection cell-based antiviral screen. hit rate 0.37% among 200,000. inhibition, % at 10 µM. AID 1251, 2008;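 active = inhibition from about 30%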;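 also: bluetongue infection of BSR cells; cell survival read as ATP light after 72 h; 0% = infected wells without compound and 100% = uninfected wells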
Mtb betalactam – beta-lactam sensitization of Mtb H37Rv, H37Rv. M. tuberculosis H37Rv growth with meropenem, percent inhibition; hits of this screen are not shown here. AID 434955, 2010. inhibition, % at 25 µM. hit rate 0.27% among 330,000;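 active = about 74% or more and at least 40 points above the plate without the antibiotic, then above 30% in a dose series; inconclusive = first-round hits that could not be retested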;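 also: growth measured after seven days incubation then overnight dye step; 0% = bacteria only wells and 100% = bacteria with antibiotic; twin plates without the antibiotic show which effects depend on it; some results filed as inactive read as strong as hits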
Arbovirus inh repeat – second read-out of Arbovirus inh, no call of its own (marks repeat the call); inhibition, %; measured here: 10K subset replicate screen; many hits read low in the repeat;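 first of two repeat runs on a subset; 0% = infected and 100% = uninfected wells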
* = called active by the depositor; ? = inconclusive; . = not tested or not shown. This is a subset; count on the stated rates, not on these rows.

SMILES	Mtb H37Rv	YopH inh	RecA splice inh	Arbovirus inh	Mtb betalactam	others
Cc1ccc(-n2nnc3c(=O)n(Cc4ccccn4)cnc32)cc1C	-1%	.	0.4	3	-8
CCCN(CCC)CCNS(=O)(=O)c1ccc2c(c1)oc(=O)n2C	-1%	-26	-7.3	7	-29
CNC(=S)N/N=C/c1cn(Cc2c(F)cccc2Cl)c2ccccc12	9%	-16	12	-2	7
C#CCOc1ccc(/C=C2/C(=O)NN(c3ccccc3)C2=O)cc1OC	.	.	-2.2	.	6
CCN=c1scc(C)n1/N=C/c1cc(Br)c(O)c(Br)c1	0%	.	-8.8	31*	21
O=C(NN=C1CCCCCC1)C(=O)Nc1cccc(Br)c1	?	-3	-4.5	-7	88
CCN1CCCn2c1nc1c2c(=O)n(C)c(=O)n1C	-2%	-20	-0.6	5	-3
CC(=O)OC[C@H]1COc2ccc3ccccc3c2[C@H]1N(C)C(C)=O	-1%	.	3.8	-2	5
Cn1c(=O)[nH]c(=O)c2c1nc(NCCCO)n2CCOc1ccccc1	-6%	.	1.9	-3	2
O=C(NCc1cccnc1)c1cnc2sccn2c1=O	-12%	-23	3.3	-2	-3
CCOc1ccc(-n2cnnn2)cc1S(=O)(=O)NCc1ccccc1	-2%	6	-1.5	-2	-3
COc1ccccc1-c1nnc(N)s1	-6%	.	-0.6	-4	10
COc1ccc(-c2cccc(NC(=O)c3ccco3)c2)nn1	.	.	1.4	.	2
Cc1ccc(C)c(N(CC(=O)N2CCCCCC2)S(C)(=O)=O)c1	.	.	-1.5	.	-2
CCc1nnc(NS(=O)(=O)c2ccc(N)cc2)s1	.	.	0.9	.	81
CC(=O)COc1cc(C)cc2oc(=O)cc(-c3ccccc3)c12	0%	.	-0.1	-2	-6
C=CCNc1nc(C(=O)OCC(=O)c2ccc(OC)cc2OC)cs1	.	.	2.2	.	11
OC(COc1ccc(-c2ccccc2)cc1)CN1CCOCC1 (stereo not given)	8%	.	5.0	-9	2
O=C1OC(CCl)CN1Cc1ccc([N+](=O)[O-])cc1 (stereo not given)	.	.	-1.2	.	-2
COc1ccc(NC(=O)c2sc(Cl)nc2-c2ccccc2)cc1	10%	-19	1.6	1	1
CCOC(=O)c1csc(-c2ccc([N+](=O)[O-])cc2)n1	13%	.	8.0	0	10
c1ccc(Nc2nc(Nc3ccccc3)nc(N3CCNCC3)n2)cc1	.	.	0.6	.	77
COc1ccc(NC(=S)NNC(=O)Cn2nc([N+](=O)[O-])cc2C)cc1	4%	-15	-3.4	1	-12
Cc1c(CCC(=O)NCCCN2CCCC2=O)c(=O)oc2cc(O)ccc12	.	.	-54	.	-2
Cc1cccc2c(=O)c(C(=O)NCCCN3CCOCC3)c[nH]c12	3%	3	-0.5	2	4
Further results:
SMILES	Mtb H37Rv	YopH inh	RecA splice inh	Arbovirus inh	Mtb betalactam	others
CCC1CCCCN1C(=S)Nc1ccc(SC(F)F)cc1 (stereo not given)	?	-25	3.0	9	-4
Cc1ccc(Nc2nc(-c3c(C)nc4ncccn34)cs2)cc1	6%	-33	9.1	-3	98
CC(C)=N/N=C1/NC(=O)C(CC(=O)Nc2cc(Cl)ccc2C)S1 (stereo not given)	-9%	-23	1.9	-2	3
COc1ccc(OC)c(/C=C/C(=O)OCC(=O)Nc2cccc(Oc3ccccc3)c2)c1	-1%	-20	-13	-4	7
CCn1c2ccccc2c2cc(NC(=O)CN3CCCC3)ccc21	.	.	1.6	.	0
COC(=O)c1ccc([N+](=O)[O-])c(CS(=O)(=O)c2ccc(Cl)cc2)c1	.	.	-1.2	.	2
COCC1CCCN(Cc2nc(-c3ccc4c(c3)OCO4)no2)C1 (stereo not given)	5%	.	-0.2	2	-4
OC1(c2ccc3c(c2)OCO3)CCN(Cc2ccc(F)cc2)CC1	-5%	.	-1.9	.	-7
Cc1nc2ccccn2c1C(=O)/C=C/c1ccc(F)cc1	9%	-29	3.2	1	18
COc1ccc(OC)c(NC(=O)CSc2ccccc2)c1	1%	-40	1.7	-3	0
Cn1c(CC(=O)Nc2ccc(F)cc2)c(Sc2ccccc2)c2ccccc21	-7%	-31	0.3	2	-4
COc1ccc(C2C(C(N)=O)=C(C)Nc3nc(-c4ccccc4OC)nn32)cc1OC (stereo not given)	2%	-10	-7.0	1	1
COc1ccccc1OCCCOc1ccc(C)cc1Br	10%	-40	-0.3	6	6
CC(C)[C@@H]1N[C@]2(C(=O)Nc3ccccc32)[C@@H]2C(=O)N(c3cccc(C(F)(F)F)c3)C(=O)[C@@H]21	-5%	-25	.	4	6
CCOc1cc(Cl)c(NC(=O)CC)cc1OCC	3%	-30	-1.0	-4	4
CC(C)N1CC(O)=C(c2nc3ccccc3c(=O)[nH]2)C1=N	-1%	-3	-8.8	2	3
O=C(Nc1ccc(F)cc1F)c1cc(-c2ccc3c(c2)OCO3)on1	.	.	5.8	.	8
C#CC(=O)N(c1ccc(OC)cc1OC)C(C(=O)NC1CCCC1)c1cccs1 (stereo not given)	-3%	.	.	-33	2
C=CCN1C(=O)C(CC(=O)O)SC1=Nc1ccc(C)cc1 (stereo not given)	7%	.	4.1	6	6
CCOc1ccc(NC(=O)NCC2CCN(Cc3ccc(F)cc3)CC2)cc1	.	.	-0.9	.	-1
CCCc1cc(=O)oc2cc(C)cc(OC(C)C(=O)NCc3cccnc3)c12 (stereo not given)	.	.	0.3	.	2
CCOC(=O)/C=C/C(=O)Nc1ccc(-c2nnc3n2CCCCC3)cc1	.	.	-0.6	.	99
O=C(c1cccc(Br)c1)N1CCN(S(=O)(=O)N2CCCCCC2)CC1	.	.	-0.1	.	-18
O=C(CCC1CCCCC1)Nc1c2c(nn1-c1ccc(F)cc1)CS(=O)(=O)C2	1%	-37	-0.3	-6	-2
O=C1Nc2ccc(Br)cc2C1=Nc1cccnc1	-7%	.	15	.	-1

Pulled by structure from the list above:
SMILES	Mtb H37Rv	YopH inh	RecA splice inh	Arbovirus inh	Mtb betalactam	others
O=C(NCc1cccnc1)c1cnc2sccn2c1=O	-12%	-23	3.3	-2	-3
CCN=c1scc(C)n1/N=C/c1cc(Br)c(O)c(Br)c1	0%	.	-8.8	31*	21

Four successive compounds out of the list so far, quoted:
SMILES	Mtb H37Rv	YopH inh	RecA splice inh	Arbovirus inh	Mtb betalactam	others
CCC1CCCCN1C(=S)Nc1ccc(SC(F)F)cc1 (stereo not given)	?	-25	3.0	9	-4
Cc1ccc(Nc2nc(-c3c(C)nc4ncccn34)cs2)cc1	6%	-33	9.1	-3	98
CC(C)=N/N=C1/NC(=O)C(CC(=O)Nc2cc(Cl)ccc2C)S1 (stereo not given)	-9%	-23	1.9	-2	3
COc1ccc(OC)c(/C=C/C(=O)OCC(=O)Nc2cccc(Oc3ccccc3)c2)c1	-1%	-20	-13	-4	7

(further entries)
SMILES	Mtb H37Rv	YopH inh	RecA splice inh	Arbovirus inh	Mtb betalactam	others
Cc1cc(N2CCN(C)CC2)nc(-c2ccccc2O)n1	-1%	.	-0.7	.	-4
Cc1ccc(C(c2nnnn2CS(=O)(=O)c2ccc(C)cc2)N2CCN(c3ncccn3)CC2)cc1 (stereo not given)	-5%	-10	0.4	11	-8
NC(=O)c1cc(S(=O)(=O)N2CC=C(c3ccccc3)CC2)cs1	.	.	-1.4	.	-5
CC(/C=N/Nc1nc(N2CCCCC2)nc(N2CCCCC2)n1)=C\c1ccccc1	79%	-34	-3.9	-16	90
CCc1cccc(NC(=O)C2CCCN(c3ncnc4c3nc3n4CCCCC3)C2)c1 (stereo not given)	.	.	3.4	.	54
O=C(Cc1ccccc1)Nc1ccnn1C1CCN(Cc2nccs2)CC1	.	.	-0.7	.	4
Clc1cccc(Cl)c1/C=N/Nc1c(Cl)cncc1Cl	-6%	.	2.9	.	2
CCN(CC)S(=O)(=O)N1CCC(C(=O)NCCN2CCOCC2)CC1	-15%	-47	-2.2	1	-7
COc1cccc(C(=O)c2ncc(C(F)(F)F)cc2Cl)c1	5%	.	23	1	-2
Cc1cccc(NC(=O)COc2ccccc2C(=O)NC(C)c2ccccc2)c1 (stereo not given)	.	.	12	.	1
COC(=O)Nc1ccc(S(=O)(=O)N2CCCCCC2)cc1	2%	-30	-0.7	-20	3
CCCc1cc(=O)oc2c3c(c(Cl)cc12)OCN(CCCO)C3	.	.	-160	.	-1
Cc1ccc(C(C)(C)NC(=O)C2CCC(=O)N(Cc3ccccc3F)C2)cc1 (stereo not given)	.	.	-1.0	.	-8
OC(COc1ccccc1)CN1CCN(Cc2ccc3c(c2)OCO3)CC1 (stereo not given)	2%	.	-0.7	-1	-6
CCCc1cc(C(=O)Nc2cccnc2)no1	10%	-47	0.7	-5	5	Arbovirus inh repeat=-7
COc1cc(/C=C2\SC(=Nc3ccc(F)cc3)N(c3ccc(F)cc3)C2=O)ccc1OCC(=O)O	-3%	.	.	5	-1
CC(=O)NCCc1ccc(S(=O)(=O)N2CCOCC2)cc1	0%	-41	-2.1	0	-5
O=C(Nc1ccc2cccnc2c1)c1ccc(Br)cc1	.	.	3.9	.	35
CC1CCCN(CCCNC(=O)c2cc3c(Cl)nc4ccccc4c3s2)C1 (stereo not given)	2%	.	3.8	-31	54
COc1ccc(S(=O)(=O)N2CCSC2c2ccc(OC)c(OC)c2)cc1 (stereo not given)	-9%	-42	.	12	3
CCOC(=O)CNC(=O)CSc1cc(C)nc2ccc(OC)cc12	-9%	.	2.3	1	33
O=C1N=C(N2C=CC(=C3C=CNC=C3)C=C2)/C(=C/N=NC(=O)c2ccccc2O)S1	.	.	-3.7	.	0
Cc1cc(Cl)ccc1NC(=O)Nc1c(C)n(-c2ccccc2)c(=O)n1C	5%	-21	1.7	5	-2
CC1(C)CNC(=O)c2sc(N3CCCCC3)nc2C1	-6%	-26	-1.1	2	-2
COc1ccc(N2CCN(C(=O)CCCNC(=O)Cn3cnc4sc(C)c(C)c4c3=O)CC2)cc1	.	.	-1.4	.	-8
Further compounds follow:
SMILES	Mtb H37Rv	YopH inh	RecA splice inh	Arbovirus inh	Mtb betalactam	others
CN1CCS/C1=C/C=C1/SC(=S)N(Cc2ccccc2)C1=O	9%	-2	-2.8	-4	-1
Cc1c(N=C2N=C(NC(=O)c3cccs3)c3ccccc32)c(=O)n(-c2ccccc2)n1C	6%	.	.	-11	-3
C=CCN(C(=O)c1csnn1)C(C(=O)NC1CCCCC1)c1ccc(C)cc1 (stereo not given)	.	.	5.5	.	-4
N/C(=N\S(=O)(=O)c1cc(C(F)(F)F)cc(C(F)(F)F)c1)c1cccs1	-8%	.	-2.0	.	-2
O=C(CN1CCN(S(=O)(=O)c2ccccc2)CC1)Nc1ccc(Cl)c([N+](=O)[O-])c1	.	.	3.1	.	-11
CCCCOCCCNC(=O)Cc1cccs1	4%	-25	2.8	0	1	Arbovirus inh repeat=-4
CC(C)(C)C(=O)Nc1c2c(nn1-c1cccc(Cl)c1)CS(=O)(=O)C2	.	.	-1.3	.	-1
CCCCn1c(N)c(N(CC(C)C)C(=O)C2CCN(S(=O)(=O)c3ccc(C)c(C)c3)CC2)c(=O)[nH]c1=O	.	.	2.4	.	?
O=C(COc1ccc(-c2nnco2)cc1)N1CCN(S(=O)(=O)c2ccccc2)CC1	-15%	-25	0.4	11	-4
COc1ccc(OC)c(C2/C(=C(\O)c3ccc(OC)c(Cl)c3)C(=O)C(=O)N2CCN(C)C)c1 (stereo not given)	1%	-33	0.9	-4	-16
O=C(N/N=C/c1nn(-c2ccccc2)cc1-c1ccccc1)c1ccncc1	?	-26	-7.2	1	38
COc1ccc(Cl)cc1N(CC(=O)N/N=C/c1ccc(OC(C)C)cc1)S(=O)(=O)c1ccc(C)c([N+](=O)[O-])c1	3%	-26	-2.4	-5	5
COc1cc(CNCCO)cc(Br)c1OCc1cccs1	3%	-12	1.0	-8	-5
CN1C(=O)C(=O)N(c2cccc(C(F)(F)F)c2)C1=O	.	.	0.1	.	-5
Cc1cccc(C(=O)O/N=C/c2c(Cl)n(C)c3ccccc23)c1	61%	-41	0.1	-7	61
COc1ccc(N2CCN(C(=O)Cn3cnc4sc(C)c(S(=O)(=O)N5CCOCC5)c4c3=O)CC2)cc1	.	.	-1.5	.	1
CCNS(=O)(=O)c1ccc(Br)c(OC)c1	-4%	-5	0.8	4	?
O=C(N/N=C\c1cccnc1)c1cc(-c2ccc(Cl)s2)[nH]n1	70%	.	-5.7	-13	44
Cc1[nH]c2ccccc2c1/C=N/NC(=O)c1cccc(S(=O)(=O)Nc2ccccc2Cl)c1	13%	-32	1.6	5	0
O=S(=O)(NCC(Nc1ccc(Cl)cc1)c1ccccc1)c1ccccc1 (stereo not given)	5%	-14	-0.5	-29	0
